Bioassay records as filed in PubChem BioAssay.
Mtb growth – Mycobacterium tuberculosis H37Rv growth inhibition, cell based, confirmatory dose response (AID 1949); M. tuberculosis H37Rv growth inhibition; most inactive calls were filed without a number and no value below 0 was filed; inhibition, % at 10 µg/mL; hits with a dose series show IC50 in µg/mL; 100,000 tested, 1.6% active;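 active = confirmed in a dose series; inconclusive = about 50% or more but not retested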;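 note: bacteria grown 7 days with compound before Alamar blue readout; 0% = untreated bacteria and 100% = reference antibiotic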
* = called active by the depositor; i = inactive; ? = inconclusive.

SMILES	Mtb growth
Cc1nc2cc(NC(=O)N3c4ccccc4CC3C)ccc2n1C (stereo not drawn)	2%
C=C(C)Cn1c(/C=C/c2ccco2)nc2ccccc21	2%
CC(=O)Nc1ccc(C(=O)CSc2nc(-c3ccccc3)c(-c3ccccc3)o2)cc1	i
CCCCOc1ccc(S(=O)(=O)N2CCN(c3cc(Cl)ccc3C)CC2)cc1	4%
CSc1cccc(NC(=O)C2CCCN2S(=O)(=O)c2ccc(Br)s2)c1 (stereo not drawn)	i
CCN(CC)S(=O)(=O)c1ccc(NC(=O)c2ccccc2Oc2ccccc2)cc1	i
COc1ccc(N(CC(=O)Nc2ccccc2C(=O)NCc2ccccc2)S(C)(=O)=O)cc1	i
Cc1ccccc1Cn1ccc(NC(=O)c2cc3n(n2)C(C(F)(F)F)CC(c2ccco2)N3)n1 (stereo not drawn)	i
CCOc1cc(-c2noc(CCCC(=O)NC)n2)cc(Br)c1OC	0%
COc1ccc(N/C=C(/C#N)c2nc(-c3ccccc3)cs2)cc1	3%
O=C(CCC(=O)c1ccc(Br)cc1)Nc1cccc(C(F)(F)F)c1	i
COc1ccc(NC(=O)c2ccoc2C)cc1OC	i
OC(CNC1CCCCC1)COc1ccccc1 (stereo not drawn)	i
COc1ccccc1C(=O)N/C(=C/c1ccccc1)C(=O)Nc1cccc(C(=O)O)c1	16%
C=CCn1c(SCC(=O)Nc2ccc(I)cc2C)nnc1C(C)NC(=O)c1ccccc1 (stereo not drawn)	i
COC(=O)C1=C(C)NC(=O)NC1c1cc(OC)c(OC)cc1Cl (stereo not drawn)	i
Cc1nnc(SCc2cc(=O)[nH]c(/N=C(\N)Nc3ccccc3Sc3ccccc3)n2)s1	i
CC(=O)c1ccc(NC(=O)COc2ccccc2C(N)=O)cc1	i
Cc1cc(NC(=O)c2cccc(I)c2)no1	i
CCn1c(SCC(=O)Nc2cccc(C(=O)O)c2)nnc1-c1ccccc1Cl	i
O=C(CCc1ccccc1)NC1C2CC3CC(C2)CC1C3 (stereo not drawn)	3.1µg/mL*
CS(=O)(=O)N(CC(=O)Nc1ccccc1C(=O)N1CCCC1)c1ccc(F)cc1	i
Cc1ccc(S(=O)(=O)N(CC(=O)Nc2cccc(Cl)c2)C2CCCCC2)cc1	6%
Cc1cc(C)nc(NC2=NCC(=O)N2c2ccc(F)c(Cl)c2)n1	i
CCOC(=O)c1c[nH]c2c(Cl)cccc2c1=O	i
COC(=O)c1c(NC(=O)CC2Nc3cc(C)c(C)cc3NC2=O)sc2c1CCCC2 (stereo not drawn)	i
CC(=O)NC(=S)Nc1ccc(NC(=O)c2cccs2)cc1	39%
Cc1cccc(N2C(=O)NC(=O)C(CCc3ccncc3)(CCc3ccncc3)C2=O)c1	i
CC1CCN(C(=S)c2ccc(OCC(=O)NCc3ccccc3)cc2)CC1	i
CSc1ccc(/C=C2\C(O)C3CCN2CC3)cc1 (stereo not drawn)	i
COC(=O)Nc1ccc(S(=O)(=O)n2cnc3ccccc32)cc1	i
O=C(CSc1nnc(-c2ccncc2)n1-c1ccc(Cl)cc1)Nc1ccc2c(c1)OCO2	i
C=CCn1c(SCC(=O)Nc2cccc(OC)c2)nc2sc(-c3ccccc3)cc2c1=O	3%
O=C(Cn1nnc2ccccc21)NCCN1CCCC1	i
O=S(=O)(NCCCc1ccccc1)c1ccc2ccccc2c1	i
Cc1ccc(C23CC4CC(CC(C(=O)NC(C)C)(C4)C2)C3)cc1	i
Cn1cnnc1Sc1cc(N2CCN(S(C)(=O)=O)CC2)ccc1[N+](=O)[O-]	1%
O=C1OC2(CCCCC2)OC(=O)C1(CCc1ccncc1)CCc1ccncc1	i
C=CCn1c(SCC(=O)Nc2nc(C)cs2)nnc1-c1ccccc1C	i
COc1ccc(C)cc1S(=O)(=O)N(C)CC(=O)N1CCCCC1	i
COC(=O)C1=C(C)NC2=C(C(=O)CCC2)C1c1cc(F)ccc1F (stereo not drawn)	i
Cc1cccc(N2C(=O)CC(NC3CCCC3)C2=O)c1 (stereo not drawn)	1%
O=C(COc1ccc(S(=O)(=O)NCc2ccccc2)cc1Cl)N1CCOCC1	i
CCOc1cc(C2NC(=S)NC(C)=C2C(=O)Nc2ccccc2)c(Cl)c(Br)c1O (stereo not drawn)	i
N#Cc1cc(O)c(-n2nnc3ccccc32)cc1C#N	0%
O=C(CC(c1ccccc1)c1cc(Br)ccc1O)NCc1cccnc1 (stereo not drawn)	i
O=S(=O)(Nc1ccc(Br)cc1)c1ccc(F)c(Cl)c1	4%
CC1CCN(CC(=O)Nc2cccc([N+](=O)[O-])c2)CC1	?
CCc1cc(Br)ccc1NC(=S)Nc1ccc([N+](=O)[O-])cc1	?
O=C(COc1ccccc1)NC(=S)Nc1ccc(CN2CCCCC2)cc1	i
O=C(NCc1ccco1)NCC(F)(F)F	i
Cc1c(NC(=O)Cc2cccc3ccccc23)cccc1-c1nc2ccccc2s1	30%
O=C(CSc1ncn[nH]1)Nc1nc(-c2ccccc2)ns1	i
Cc1cccc(NC(=O)C(=S)NC2CCCC2)c1C	3%
CC(=O)c1ccc(NS(=O)(=O)c2cc(Cl)ccc2Cl)cc1	i
FC(F)(F)c1cccc(Cn2c(-c3cscn3)nc3ccccc32)c1	4%
COc1ccc(C(=O)Nn2cc3c(c2-c2ccccc2)c(=O)n(C)c(=O)n3C)cc1	2%
COc1cc(S(=O)(=O)N2CCc3ccccc3C2)c(Cl)cc1Cl	8%
CC(=O)Nc1cccc(NC(=O)c2ccccc2SCc2ccccc2)c1	i
CCOc1ccccc1C(=O)Nc1nnc(CNS(=O)(=O)c2ccc(C)cc2)s1	47%
More compounds
SMILES	Mtb growth
O=C(NCc1ccco1)c1ccc2c3c(cccc13)CC2	20%
COc1cc(CN2CCNCC2CCO)cc(OC)c1 (stereo not drawn)	i
Cc1ccc(C(=O)NCCOc2ccccc2Cl)cc1	i
CCOC(=O)C1CCN(CCC(=O)Nc2ccccc2F)CC1	i
CS(=O)(=O)N1CCN(C(=S)NCc2ccc(Cl)cc2)CC1	i
COc1ccc(OC)c(CNCCNC(=O)c2ccccc2F)c1	i
CCc1ccccc1NC(=O)c1cc(-c2ccccc2)on1	1%
COc1ccc(OC)c(-n2c(-c3ccncc3)n[nH]c2=S)c1	i
N/C(=N\OC(=O)Cc1ccccc1)c1cccnc1	1%
CC(C)c1ccc(N(CC(=O)NCc2ccncc2)S(=O)(=O)c2ccccc2)cc1	i
CCCCC(=O)Nc1sc2c(c1C(N)=O)CCC2	5%
O=C(CCc1ccccc1)Nc1ccc(-c2nc3ccccc3[nH]2)cc1	i
Cc1c(Cc2ccccc2)c(=O)oc2cc(OCC(=O)c3cccc([N+](=O)[O-])c3)c(Cl)cc12	i
O=C(Nc1ccc(OCc2ccccc2)cc1)c1ccccc1	i
CCOc1ccc(NC(=S)Nc2cccc(OC)c2)cc1	43%

A second format for some results above.
| SMILES | Mtb growth |
| --- | --- |
| COc1cc(S(=O)(=O)N2CCc3ccccc3C2)c(Cl)cc1Cl | 8% |
| CC(=O)Nc1cccc(NC(=O)c2ccccc2SCc2ccccc2)c1 | i |
| CCOc1ccccc1C(=O)Nc1nnc(CNS(=O)(=O)c2ccc(C)cc2)s1 | 47% |
| O=C(NCc1ccco1)c1ccc2c3c(cccc13)CC2 | 20% |
| COc1cc(CN2CCNCC2CCO)cc(OC)c1 (stereo not drawn) | i |
| Cc1ccc(C(=O)NCCOc2ccccc2Cl)cc1 | i |
| CCOC(=O)C1CCN(CCC(=O)Nc2ccccc2F)CC1 | i |
| CS(=O)(=O)N1CCN(C(=S)NCc2ccc(Cl)cc2)CC1 | i |
| COc1ccc(OC)c(CNCCNC(=O)c2ccccc2F)c1 | i |
| CCc1ccccc1NC(=O)c1cc(-c2ccccc2)on1 | 1% |
| COc1ccc(OC)c(-n2c(-c3ccncc3)n[nH]c2=S)c1 | i |
| N/C(=N\OC(=O)Cc1ccccc1)c1cccnc1 | 1% |
| CC(C)c1ccc(N(CC(=O)NCc2ccncc2)S(=O)(=O)c2ccccc2)cc1 | i |
| CCCCC(=O)Nc1sc2c(c1C(N)=O)CCC2 | 5% |
| O=C(CCc1ccccc1)Nc1ccc(-c2nc3ccccc3[nH]2)cc1 | i |
| Cc1c(Cc2ccccc2)c(=O)oc2cc(OCC(=O)c3cccc([N+](=O)[O-])c3)c(Cl)cc12 | i |
| O=C(Nc1ccc(OCc2ccccc2)cc1)c1ccccc1 | i |
| CCOc1ccc(NC(=S)Nc2cccc(OC)c2)cc1 | 43% |

Remaining list, next part.
SMILES	Mtb growth
O=C(CCCOc1ccccc1)Nc1ccccc1[N+](=O)[O-]	3%
N/C(=N\OC(=O)c1ccc(Cl)c(Cl)c1)c1nonc1N	1%
Cc1cc(NC(=S)Nc2ccccc2)ccc1Br	i
CCN(CC)CCCCCOc1ccc(Cl)cc1Cl	i
CC(=O)Nc1ccc2c3c(cccc13)CC2	6%
Cc1ccc(S(=O)(=O)Nc2ccc(NC(=S)Nc3ccc(Cl)c(Cl)c3)cc2)cc1	i
O=C1NCC(Cn2c3ccccc3c3ccccc32)O1 (stereo not drawn)	i
CCOC(=O)C1CCN(C(=O)c2cccc(C(=O)N3CCC(C(=O)OCC)CC3)c2)CC1	i
COc1cc(NC(=O)c2cccc(Cl)c2)ccc1NC(=O)c1ccccc1Cl	i
CC1(C)Cc2c(sc3ncn4nc(C5COc6ccccc6O5)nc4c23)CO1 (stereo not drawn)	i
COc1ccc(NC(=O)C2CCN(S(=O)(=O)c3ccc(Br)cc3)CC2)cc1Cl	i
Cc1ccc(CCSCC(=O)O)cn1	i
CC1=CC(C)(C)Nc2ccc(OC(=O)c3ccco3)cc21	?
CS(=O)(=O)Nc1ccc2[nH]c(=O)[nH]c2c1	i
O=C(O)c1ccc(-c2nnn(Cc3cccc(C(F)(F)F)c3)n2)cc1	i
CC(NC(=O)c1ccccc1NS(C)(=O)=O)c1ccccc1 (stereo not drawn)	i
CC(NC(=O)c1cc(-c2ccc3c(c2)OCO3)nc2ccccc12)c1ccccc1 (stereo not drawn)	5%
CC(C)OC(=O)c1c(NC(=O)c2ccco2)sc2c1CCCCC2	1%
O=C(COc1ccccc1)Nc1nnc(C2CC2)s1	i
CC1CCN(S(=O)(=O)c2cccc(C(=O)NC3CCCC3)c2)CC1	i
CCC(C)Oc1ccc(C(=O)Nc2ccc(CN3CCOCC3)cc2)cc1 (stereo not drawn)	i
Cc1ccc(-n2c(C)cc(/C=C(\C#N)C(N)=O)c2C)cc1I	i
O=C(CCSc1ccc(Cl)cc1)Nc1cc(C(F)(F)F)ccc1Cl	i
O=C(CSc1nnc(-c2ccc(Cl)cc2)n1-c1ccc(F)cc1)c1ccccc1	i
O=C(CCc1ccc(S(=O)(=O)NCCc2ccccc2)cc1)N1CCN(c2cccc(Cl)c2)CC1	25%
COc1ccc(NC(=O)C(NC(=O)c2ccccc2NC(=O)c2ccc(C)cc2)C(C)C)cc1 (stereo not drawn)	i
O=C(CC1(O)C(=O)N(Cc2ccccc2)c2ccc(Cl)cc21)c1ccco1 (stereo not drawn)	i
CN1CCN(C(=S)Nc2ccc(Cl)cc2Cl)CC1	i
CCOC(=O)c1ccccc1NS(=O)(=O)c1ccc(OC)cc1	3%
Cc1cc(C)c(C(=O)Nc2ccc(OC(C)C)cc2)c(C)c1	i
CCn1c(SCC(=O)Nc2ccc(Br)c(C)c2C)nnc1C(C)Oc1ccccc1 (stereo not drawn)	3%
O=C(CN(c1ccc(F)cc1)S(=O)(=O)c1ccc2c(c1)OCCO2)NC1CCCCC1	i
CCOc1ccc(C(=O)Nc2cccc(C(=O)O)c2C)cc1Cl	i
CCOc1ccc(C(=O)Nc2ccc(S(=O)(=O)N3CCCC3)cc2)cc1OCC	2%
O=C(c1cc2cc(Br)ccc2oc1=O)N1CCc2ccccc21	i
O=C(NCc1ccncc1)C1CCCN(S(=O)(=O)c2ccc(Br)cc2)C1 (stereo not drawn)	i
CCc1ccc(OCc2nc(-c3ccncc3)no2)cc1	13%
CCC(=O)N1CCN(c2ccccc2NC(=O)c2ccc(OC)cc2)CC1	i
CC(C)Nc1ncnc2c1cnn2-c1ccccc1	1%
Cc1cc(C(=O)NC(=S)Nc2ccccc2C(N)=O)ccc1[N+](=O)[O-]	2%
CC(=O)c1cccc(NC(=O)CN2C(=O)C3C4C=CC(C4)C3C2=O)c1 (stereo not drawn)	i
COc1ccc(-c2cc(=O)oc3c(CN4CCCCC4)c(O)ccc23)cc1	i
O=C(O)c1ccc(C(=O)c2ccc3c(c2)C(=O)N(Cc2ccco2)C3=O)cc1	i
O=C(O)c1cccc(NC(=O)c2ccco2)c1	i
COc1ccc(C(C)NC(=O)c2ccc(Br)cc2)cc1OC (stereo not drawn)	i
O=c1cccc2n1CC1CC2CN(C(=S)Nc2cc(C(F)(F)F)ccc2Cl)C1 (stereo not drawn)	i
NC(=O)CN(Cc1ccc(F)cc1)S(=O)(=O)c1ccc(Cl)cc1	i
CCN(CC)C(=O)c1ccc(NC(=O)CCc2ccccc2)cc1	0%
COc1ccc(CCNS(=O)(=O)c2ccccc2)cc1OC	i
CCOC(=O)c1c(C)n(Cc2ccccc2)c2ccc(OCC(O)CN3C(=O)CNC3=O)cc12 (stereo not drawn)	i
Cc1cc(C)cc(NC(=S)NC(=O)C2CC2)c1	i
O=C(CSc1nc2ccccc2c(=O)[nH]1)Nc1ccccc1N1CCOCC1	2%
O=C(c1cc2cc(Cl)ccc2oc1=O)N1CCN(c2ccccc2Cl)CC1	i
Cc1cc(C)cc(Nc2ncnc3ccc(Br)cc23)c1	2%
Cn1c(=O)c2c(ncn2CC(=O)OCc2ccccc2)n(C)c1=O	i
Cc1onc(-c2ccccc2)c1C(=O)NCc1ccccn1	i
O=C(NNC(=S)NCC1CCCO1)c1ccccc1I (stereo not drawn)	i
COc1ccc(OC(C)C(=O)N2CCC(C(N)=O)CC2)cc1 (stereo not drawn)	i
COc1cc(NC(=O)C2CCCO2)c(C(=O)O)cc1OC (stereo not drawn)	i
Cc1cc(C)c(C(=O)Nc2nc3ccc(C)cc3s2)c(C)c1	i
CCC(c1ccccc1)c1nc(-c2ccc(OC)cc2)no1 (stereo not drawn)	5%
COc1ccccc1NC(=O)c1ccc(COc2ccccc2OC)o1	i
Cc1ccc(C)c(OCC(=O)O/N=C(\N)c2ccccc2)c1	6%

These rows are one share of the data; rates above refer to the full screens.
